High-throughput results deposited in PubChem BioAssay by National Center for Advancing Translational Sciences (NCATS).
miR-21 FLuc: raises the signal of a miR-21 reporter | 340,000 tested, under 10 active | AID 2288 | HeLa miR-21 FLuc reporter, luciferase, 48 h | Potency, µM (doses to about 38.3 µM), without a hit: top-dose reporter change, positive = more light; active = well fitted rising curve with a large enough effect; inconclusive = small, poorly fitted or top-dose-only effect; inactive = no such curve, though single readings can be large or run the other way;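 further: % of control where 0% means no effect; miR-21 action dims this reporter so a rising signal means less miR-21 action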
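Luminescence from a firefly luciferase reporter carrying a miR-21 binding site downstream, stably expressed under a CMV promoter in HeLa cells that make miR-21 endogenously, reports miRNA modulation after 48 h compound exposure up to approximately 40uM final.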
Rango complex inh: Rango-importin beta binding inhibition; Q14974; actives 0.031% (n = 340,000); Potency, µM (titrated, usually from 92.2 µM), for inactives: at the highest dose inhibition of complex formation; Rango CFP/YFP FRET sensor + importin beta, 45 min; active = rising FRET ratio curve, often small or poorly fitted; inconclusive = mostly compound fluorescence or quenching in the first reads; inactive = flat curves in all reads;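 further: potency means the concentration at half of the fitted maximal effect; 0% = DMSO wells and 100% = buffer wells lacking importin beta; nearly all actives have a fitted effect of over 15% in size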
Target sequence (Q14974 whole entry, looked up): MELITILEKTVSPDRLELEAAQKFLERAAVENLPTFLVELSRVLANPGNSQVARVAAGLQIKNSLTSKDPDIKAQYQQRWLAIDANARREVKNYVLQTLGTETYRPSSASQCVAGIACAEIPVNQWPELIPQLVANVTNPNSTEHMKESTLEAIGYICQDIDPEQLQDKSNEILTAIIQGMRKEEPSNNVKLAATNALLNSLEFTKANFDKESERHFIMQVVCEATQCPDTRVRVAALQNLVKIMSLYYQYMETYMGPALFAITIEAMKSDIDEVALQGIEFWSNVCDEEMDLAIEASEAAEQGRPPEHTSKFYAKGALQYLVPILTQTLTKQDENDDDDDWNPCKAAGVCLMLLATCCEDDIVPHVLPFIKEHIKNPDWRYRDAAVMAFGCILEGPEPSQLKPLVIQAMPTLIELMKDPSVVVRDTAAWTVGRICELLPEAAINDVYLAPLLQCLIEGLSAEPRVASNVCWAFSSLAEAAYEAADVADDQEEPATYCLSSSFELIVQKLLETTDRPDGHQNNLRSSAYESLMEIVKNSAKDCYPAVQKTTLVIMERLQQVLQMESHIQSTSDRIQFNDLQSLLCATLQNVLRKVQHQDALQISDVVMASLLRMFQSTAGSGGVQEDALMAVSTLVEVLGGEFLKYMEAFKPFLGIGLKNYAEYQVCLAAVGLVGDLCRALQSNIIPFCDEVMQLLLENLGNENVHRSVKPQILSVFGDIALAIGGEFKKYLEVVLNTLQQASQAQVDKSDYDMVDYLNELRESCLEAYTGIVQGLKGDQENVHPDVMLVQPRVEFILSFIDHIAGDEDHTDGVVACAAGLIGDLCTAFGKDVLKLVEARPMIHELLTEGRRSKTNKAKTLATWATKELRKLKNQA
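FRET biosensor (snurportin 1 IBB flanked by EYFP and cerulean), 50 nM, with compound 5 min, then 0.125 microM importin beta in PBS, 1 mM DTT, 0.02% Tween-20, 0.1% BSA. CFP/YFP ratio read after 45 min at room temperature; pre-read flags interference.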
GLA inh pH 4.5: alpha-galactosidase A (human) inhibition, pH 4.5; 230,000 tested, under 10 active; purified enzyme, 4-MU-alpha-Gal fluorescence, pH 4.5; activity change, negative = inhibition, % at 105 µM; P06280; inconclusive = small, poorly fitted or top-dose-only inhibition, or a rising curve; inactive = flat fitted curve, though single readings scatter; no compound was filed as active;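 further: 0% = full activity with enzyme and -100% = basal without enzyme; dose as in the result columns while the protocol names 77 µM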
Rango release inh: inhibition of RanGTP-driven Rango-importin beta dissociation; Potency, µM (doses to about 46.1 µM), inactives show at the highest dose activity change, negative = inhibition; O95149+P62826; AID 540253; actives 0.071% (n = 340,000); Biochemical FRET Rango-importin beta, RanGTP-induced dissociation; active means falling FRET ratio curve, often poorly fitted, with flat reads before Ran was added; inconclusive means other falling curves, or compound fluorescence or quenching; inactive means flat or rising ratio curve;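 further: potency means the concentration at half of the fitted maximal effect; % of control where 0% means no effect; nearly all actives have a fitted effect of over 45% in size; -100% = wells without RanGTP and RCC1; the record marks most hits as doubtful in a second field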
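Two FRET readings bracket the reaction: one 5 min after compound meets Rango–importin beta, another 45 min after RanGTP-RCC1 (0.6 uM Ran, 0.2 uM RCC1, 2 mM GTP) is added. Only the second defines inhibition.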
* hit, by the source's call; u = inconclusive; x = no result given; [ ] = another dose, or the depositor's remark. These rows are one share of the data; rates above refer to the full screens.

The line under a structure holds: miR-21 FLuc | Rango complex inh | GLA inh pH 4.5 | Rango release inh
COc1ccc(NC(=O)C2CCCN(c3ncnc4onc(-c5ccc(F)cc5)c34)C2)cc1 (centres undefined)
→ -1% | 2.9% | x | -5%
[O-][n+]1onc2c1CCC(=N/O)/C2=N\Nc1ccccc1
→ -19% | x | -18 | x
O=C(NC1CC2CCCC(C1)N2C1CC1)NC12CC3CC(CC(C3)C1)C2 (centres undefined)
→ -3% | x | -7 | x
Cc1c(-c2ccccc2)nc2ccccc2c1C(=O)Oc1ccc([N+](=O)[O-])cc1
→ -1% | 5.2% | -1 | 0%
Cc1cc(C)c2c(n1)nn1c(C3CC3)cc(C(F)(F)F)nc21
→ x | -0.1% | x | -10%
CCOC(=O)COn1c2c(c3c4no[n+]([O-])c4ccc31)CCCC2
→ -6% | -1.9% | 4 | -2%
CC(C)C(=O)Nc1cccc(NC(=O)c2cccc(F)c2)c1
→ -5% | 1.9% | 2 | 12%
Cc1nc[nH]c(=O)c1Br
→ -3% | 0.7% | 3 | -9%
CCCN(C(=O)Cc1c(C(=O)O)n(C)c2ccccc12)c1cccc(C)c1
→ 2% | 0.6% | x | 20%
COc1ccc(-c2[nH]n(-c3ccc([N+](=O)[O-])cc3)c(=O)c2C=NCCN2CCNCC2)cc1
→ 19% | x | 0 | x
CCc1nnc(N/N=C/c2ccc(-c3ccc([N+](=O)[O-])cc3)o2)n1N
→ 5% | 7.3% | -5 | -7%
Cc1ccccc1NS(=O)(=O)c1ccc(NC(=O)CSCc2ccc(Br)cc2)cc1
→ -4% | -0.8% | -18 | 9%
Oc1ccc(/C=C/c2ccc3cccc(O)c3n2)cc1Br
→ 0% | u | x | u
O=c1oc2cc(Oc3c([N+](=O)[O-])cc(C(F)(F)F)cc3[N+](=O)[O-])ccc2c2c1CCCC2
→ -4% | u | u | u
O=C(NC1CCN(Cc2ccccc2)CC1)c1cncc(Br)c1
→ 4% | -4.7% | 5 | 20%
COc1ccc(/C=C(/NC(=O)c2ccco2)C(=O)N2CCCCC2)cc1
→ -5% | -1.7% | x | -1%
COc1ccc(N(C(=O)CSCC(=O)Nc2cc(C)on2)C(C(=O)NC2CCCCC2)c2ccc(O)c(O)c2)cc1 (centres undefined)
→ -13% | -5.5% | -15 | 3%
CN1CCN(S(=O)(=O)c2ccc(C(F)(F)F)cc2)C(c2ccccc2)C1 (centres undefined)
→ x | -0.2% | x | 10%
Cc1nnc(Sc2cc(NCCCO)c([N+](=O)[O-])c3nonc23)s1
→ u | -4.3% | -2 | 0%
O=C(O)Cc1ccc(NC(=O)CCN2C(=O)c3ccc([N+](=O)[O-])cc3C2=O)cc1
→ 1% | 3.6% | -4 | 8%
Cc1c(Cl)c([N+](=O)[O-])nn1CCCC(=O)Nc1c(C)n(C)n(-c2ccccc2)c1=O
→ 3% | -2.3% | 6 | -9%
O=C(COC(=O)/C=C/c1ccc(Cl)cc1)Nc1ccc2c(c1)OCCO2
→ -1% | -0.3% | -1 | 3%
CCOC(=O)C1CCCN(C(=O)CCn2nnnc2CN2CCOCC2)C1 (centres undefined)
→ 1% | 1.1% | x | 8%
CC(C)(C)c1ccc(-c2c(C#N)c(N)nc3c2CCCC3)s1
→ -8% | u | 3 | -18%
CCC(=O)c1ccc(OCCn2cnc3ccccc32)cc1
→ -26% | 7.6% | 4 | -10%
O=C(NCc1ccc2c(c1)OCO2)c1ccc(S(=O)(=O)N2CCOCC2)cc1
→ -2% | u | -4 | -3%
C#CCOCCOCCOCCNc1nc(N2CCN(C(=O)Cn3cc(CCCCN)nn3)CC2)nc(N2CCN(C(=O)[C@H](CCCCN)n3cc(CCCC)nn3)CC2)n1
→ x | -2.2% | x | 2%
COc1cc(CCC(=O)NCC2CCCO2)cc(OC)c1OC (centres undefined)
→ -5% | -0.6% | x | -7%
COc1ccccc1-c1nc(C#N)c(N2CCc3ccccc3C2)o1
→ -16% | 4.1% | 4 | 2%
O=C(CC(C(=O)O)c1ccc(Cl)cc1)c1ccc(Br)cc1 (centres undefined)
→ 0% | 3.5% | x | -15%
O=C(N/N=C/c1ccc(N2CCCCC2)o1)c1ccccc1[N+](=O)[O-]
→ -2% | -0.1% | 3 | -6%
Cc1noc(C)c1S(=O)(=O)Nc1ccc2c(c1)C(=O)N([C@H](C)CO)C[C@H](C)[C@@H](CN(C)C(=O)NC(C)C)O2
→ x | 1.1% | x | 9%
COc1ccc(Cl)cc1NC(=O)CN(C)CC(=O)Nc1ccc(C)cc1Br
→ -1% | 1.2% | -3 | 1%
O=C(CSCc1ccccc1)NCCc1ccc(F)cc1
→ -30% | -3.4% | x | 32%
CC(OC(=O)c1ccc(Br)c(S(=O)(=O)N2CCOCC2)c1)C(=O)NC1CCCCC1C (centres undefined)
→ x | -0.5% | x | 14%
O=[N+]([O-])/C(Cl)=C(/NCCO)C(Cl)=C(Cl)Cl
→ x | -2.8% | x | 6%
COCCN(C(=O)COC(=O)CCCOc1ccc(OC)cc1)c1c(N)n(Cc2ccccc2)c(=O)[nH]c1=O
→ x | 0.4% | x | 3%
Cn1c(C2=C(O)CN(c3ccccc3)C2=N)nc2ccccc21
→ -9% | 3.8% | -14[21.1 µM] | 2%
CCc1nnc(NC(=O)CCC(=O)N2CCN(C3c4ccccc4-c4ccccc43)CC2)s1
→ -6% | -0.3% | 6 | -3%
COc1ccc(C)cc1S(=O)(=O)NC(C)C(=O)NC1CC1 (centres undefined)
→ 1% | 1.5% | x | 5%
O=C(NCCCN1CCOCC1)c1ccc(Br)s1
→ -12% | -0.3% | -26 | 12%
C=CCNc1nc(C2(C)CC3(CC(C)(C)OC3=O)C(=O)O2)cs1 (centres undefined)
→ 0% | -1.7% | 10 | 14%
O=c1[nH]c(=O)n(C(c2ccccc2)(c2ccccc2)c2ccccc2)cc1N(CCO)CCO
→ x | -0.7% | x | 2%
COc1cc(/C=C/C(=O)OCC(=O)N2CCC(C)CC2)ccc1O
→ x | u | x | -7%
COc1ccc(/C(C)=N/NC(=O)c2ccc(CSc3cccc4cccnc34)cc2)cc1OC
→ -15% | 3.5% | -1 | 1%
COC(=O)[C@]1(C)CCC[C@@]2(C)C3CC[C@@]4(C)C[C@]3(CCC21)CC(=O)N4C (some centres undefined)
→ x | 0.8% | x | -4%
Cc1cc(N)ccc1NC(=O)CN1CCOCC1
→ -1% | -4.9% | x | -7%
O=C(NCc1ccc(Cl)cc1)c1ccccc1Oc1ccccc1
→ -1% | 0.9% | -21 | 1%
CCn1cc(Cl)c(C(=O)Nc2ccc3c(c2)OCCO3)n1
→ -14% | 3.1% | -9 | -1%
COc1ccc(NS(=O)(=O)c2ccc3oc(SC(C)C(N)=O)nc3c2)cc1 (centres undefined)
→ 3% | -0.2% | x | 1%
NC(=O)C1CCN(C(=O)COc2ccc3c4c(c(=O)oc3c2)CCC4)CC1
→ 2% | -4.3% | x | 23%
COc1cccc(Cc2n[nH]c(=S)n2Cc2ccco2)c1
→ -1% | 1.3% | -9 | 1%
N#CCSc1nc2sccc2c(=O)n1-c1ccccc1
→ -32% | -6.5% | x | -1%
CCOC(=O)C1CCN(CCC(=O)Nc2cccc(Cl)c2)CC1
→ -1% | -6.1% | 9 | 8%
Cc1cc(NC(=O)COC(=O)c2oc3c(Cl)cccc3c2C)no1
→ -5% | 6.6% | -6 | 0%
Cc1c(Cl)cccc1NC(=S)N=Nc1c(O)n(CN2CCOCC2)c2ccccc12
→ 19% | -1.5% | -10 | 10%
CC(C)COC(=O)C(N)C(C(=O)OCC(C)C)c1ccccc1 (centres undefined)
→ -8% | -2.4% | -2 | 4%
CCOc1ncccc1C(=O)OCC(=O)Nc1ccc(-c2nc3ccc(C)cc3s2)cc1
→ -29% | -3.5% | 2 | 5%
O=C(CSc1nc(C2CC2)nc2ccccc12)Nc1ccccc1Cl
→ 1% | -6.5% | x | 11%
O=C(NCc1cccc(Cl)c1)c1ccco1
→ -13% | -1.5% | 3 | -9%

Profiles, quoted from the list:
Listed for CCn1cc(Cl)c(C(=O)Nc2ccc3c(c2)OCCO3)n1 → miR-21 FLuc: -14%; Rango complex inh: 3.1%; GLA inh pH 4.5: -9; Rango release inh: -1%
Listed for O=C(NCc1cccc(Cl)c1)c1ccco1 → miR-21 FLuc: -13%; Rango complex inh: -1.5%; GLA inh pH 4.5: 3; Rango release inh: -9%

Going on with the list:
The line under a structure holds: miR-21 FLuc | Rango complex inh | GLA inh pH 4.5 | Rango release inh
CCOc1ccc(S(=O)(=O)N2CCC(C(=O)NCC3CCCO3)CC2)cc1Cl (centres undefined)
→ 8% | 4.6% | x | 8%
CN(CCCNC(=O)c1ccc(/C=N/O)nc1)CCCN(C)Cc1ccccc1
→ -4% | -2.8% | 6 | -6%
Cc1ccc(C(=O)NCCNC(=O)CN2CCOCC2)cc1
→ -3% | -1.6% | 1 | 0%
Cc1ccc(-n2nc3ccc(NC(=O)/C=C/c4ccco4)cc3n2)cc1C
→ -26% | -1.9% | -2 | -11%
Cc1cc(NC(=O)CN2C(=O)C3CC=CCC3C2=O)no1 (centres undefined)
→ -2% | 1.4% | 2 | 4%
COC(=O)c1cc2c(ccn2C)n1C
→ -1% | -3.7% | 3 | 0%
CCCCCSc1nnc(N)s1
→ -12% | 4.0% | 6 | -14%
COCc1cc(C)nc2sc(C(=O)NCCO)c(-n3cccc3)c12
→ -2% | -0.7% | 0 | 5%
Cc1ccc(S(=O)(=O)c2nc(S(C)(=O)=O)sc2NCC2CCCO2)cc1 (centres undefined)
→ -4% | 0.6% | -2 | 1%
CC(=O)c1ccc[n+](CC(=O)NC(C)c2ccccc2)c1 (centres undefined)
→ -2% | 6.9% | x | -15%
O=C(NNc1ncc(C(F)(F)F)cc1Cl)c1c(Cl)cccc1Cl
→ 22% | 0.1% | -4 | -16%
Cc1ccc(NC(=O)C2CCCN2C(=O)OCc2ccccc2)c(O)c1 (centres undefined)
→ -2% | -0.5% | x | 1%
COC(=O)C1=C(NC(=O)c2ccc(Br)cc2)CCS1
→ 7% | -1.9% | -1 | -1%
CCc1cccc(C)c1NC(=O)Nc1ccc2c(c1)OCO2
→ -9% | -0.4% | -1 | 0%
Cc1ccc(C)c(NC(=O)CCC(=O)NN=C2CCCC2)c1
→ 1% | 7.4% | x | 3%
Oc1ccc(Cc2ccc(Cl)cc2)c(O)c1
→ -4% | -1.7% | 4 | -3%
CN1CCN(/N=C/c2ccc(C#N)cc2)CC1
→ -36% | -3.5% | 5 | -2%
Nc1nnnn1CC(=O)N/N=C/c1cccs1
→ -11% | -3.8% | -4 | -8%
CCCCN(CCCC)C(=O)/C=C/c1cccc([N+](=O)[O-])c1
→ -1% | -5.7% | -7 | 14%
Cn1c(SCC(=O)NC2CCCCC2)nnc1-c1cc2cc(Cl)ccc2o1
→ -3% | -0.6% | -3 | 2%
COc1cccc(/C=N/NC(=O)c2cnccn2)c1
→ -24% | 5.0% | -5 | 3%
CNC(=O)c1sccc1-n1cccc1
→ 2% | -1.5% | 0 | 10%
O=C(CN(CCc1ccccc1)C(=O)CNS(=O)(=O)c1ccc(F)cc1)NCC1CCCO1 (centres undefined)
→ -8% | -1.9% | 4 | 3%
Oc1c(N=NC(=S)Nc2ccccc2F)c2ccccc2n1Cc1ccccc1F
→ 5% | 2.1% | -9 | 4%
O=C(Nc1ccc(F)cc1)N1CCCCCC1
→ -28% | -0.1% | x | 5%
COc1cccc(-c2nn(C)c3sc(C(=O)NCc4ccc5c(c4)OCO5)cc23)c1
→ 3% | 1.4% | -9 | 21%
O=C(COc1ccc(C(=S)N2CCCC2)cc1)Nc1ccccc1C(F)(F)F
→ -4% | u | x | 6%
O=[N+]([O-])c1cc([N+](=O)[O-])c(Oc2c(F)cc(F)cc2F)cc1NN1CCCCC1
→ 1% | -1.0% | x | 1%
O=C(COC(=O)C1CC2C=CC1C2)Nc1cccc(S(=O)(=O)N2CCOCC2)c1 (centres undefined)
→ 4% | -2.3% | -1 | -2%
COc1ccc(-n2c(=O)[nH]c3c(C(N)=O)nc(C4CCCCC4)nc32)cc1
→ -2% | -2.5% | -10 | 0%
Cn1ncc2c(Nc3ccc(O)cc3)nc(Cl)nc21
→ -30% | -0.1% | -5 | 7%
